Screening results deposited in PubChem BioAssay by National Center for Advancing Translational Sciences (NCATS).
StopGo reporter: lowers the luciferase signal of an FMDV 2A StopGo reporter; 1.2% of 410,000 active; human cells with a luciferase reporter of 2A StopGo recoding; control for the full effect not named in the record; Potency, µM (highest dose often 57.9 µM), for inactives: at the top dose signal change, negative = less light; AID 1159524; active = well fitted falling curve with a large enough effect; inconclusive = small, poorly fitted or top-dose-only effect; inactive = no such curve, though single readings can be large or run the other way; tested in HEK293T cells; also: % is scaled to controls: 0 for no effect and ±100 for the full control effect; nearly all actives have a fitted effect of over 45% in size; luciferase light after 4 h
NS1 inh: influenza NS1 inhibition. Potency, µM (series often up to 46.1 µM), inactives show at the top dose activity, positive = more growth. 0.4% of 270,000 active. S. cerevisiae slowed by influenza A NS1, growth recovery by OD600. AID 2326; active means well fitted rising curve with a large enough effect; inconclusive means small, poorly fitted or top-dose-only effect; inactive means no such curve, though single readings can be large or run the other way; also: nearly all actives have a fitted effect of over 50% in size
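S. cerevisiae expressing influenza A NS1, grown in glucose, washed, then diluted 1:100 into pH 6.0 -URA galactose medium with 23 nl compound. Growth recovery read as OD600; NS1-free strain serves as control.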
RE007 growth inh: less growth of the S. pombe RE007 Vpr strain; S. pombe RE007 Vpr strain, BacTiter-Glo ATP luminescence, 24 h; control for the full effect not named in the record; Potency, µM (series often up to 92.2 µM), without a hit: at the top dose activity change, negative = less growth; AID 651644; 0.21% of 360,000 active; active = well fitted falling curve with a large enough effect; inconclusive = small, poorly fitted or top-dose-only effect; inactive = no such curve, though single readings can be large or run the other way;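 also: % is scaled to controls: 0 for no effect and ±100 for the full control effect; nearly all actives have a fitted effect of over 50% in size; the assay follows cell death caused by Vpr and the record does not say whether a fall means rescue or toxicity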
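Fission yeast RE007 carrying one integrated HIV-1 vpr copy, seeded at OD 0.01 in PMG+AL medium with 23 nL pinned compound. Grown 24 h at 30 degrees; viability read by BacTiter-Glo luminescence after 5 min.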
Cruzain noTriton: inhibitors of Trypanosoma cruzi cruzain without detergent. Potency, µM, for the others: max response, negative = inhibition, most hits filed as inhibitors. 2.3% of 200,000 active. AID 1476. P25779. purified cruzain, Z-FR-AMC fluorescence, no detergent;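 also: plate controls were enzyme without inhibitor for no effect and buffer without enzyme for full effect; nearly all actives have a fitted effect of over 40% in size; top concentration of the series not given in the record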
Target sequence (P25779 123-467 limits assumed): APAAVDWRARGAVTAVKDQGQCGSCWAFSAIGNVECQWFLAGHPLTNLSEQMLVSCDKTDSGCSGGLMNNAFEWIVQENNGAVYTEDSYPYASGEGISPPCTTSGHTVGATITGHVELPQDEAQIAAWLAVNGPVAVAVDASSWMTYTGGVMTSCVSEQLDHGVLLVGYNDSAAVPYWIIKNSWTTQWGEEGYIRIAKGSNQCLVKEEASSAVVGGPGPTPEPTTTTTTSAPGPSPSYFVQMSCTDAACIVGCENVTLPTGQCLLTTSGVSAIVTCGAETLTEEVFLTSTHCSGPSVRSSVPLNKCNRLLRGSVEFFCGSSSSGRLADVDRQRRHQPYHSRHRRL
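Detergent-free condition (0.00005% Triton X-100) in acetate buffer pH 5.5 with DTT. 1.5 nM enzyme and compound were pre-mixed 15 min, then 2 uM Z-FR-AMC substrate added; reaction progress from fluorescence change between first and third reads (60 s).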
Marburg entry inh: inhibitors of Marburg virus binding or cell entry | Marburg virus pseudotyped entry inhibition, cell reporter; control for the full effect not named in the record; about a third of the inactives were read at about 46 µM | Potency, µM (top dose mostly 37.8 µM), inactives show at the top dose activity change, negative = inhibition, actives largely listed as inhibitors | 1.8% of 300,000 active | AID 540276; active = well fitted inhibition curve with a large enough effect; inconclusive = small, poorly fitted or top-dose-only effect, or effect the other way; inactive = flat fitted curve, though single readings scatter; tested in HEK293 cells; about a fifth of its hits are not listed in these tables; also: % is scaled to controls: 0 for no effect and ±100 for the full control effect; luciferase read-out
Cruzain inh Det: inhibitors of Trypanosoma cruzi cruzain with detergent | purified cruzain, Z-FR-AMC fluorescence, 0.01% Triton | AID 1478 | 0.43% of 200,000 active | Potency, µM, without a hit: max response, negative = inhibition, actives largely listed as inhibitors | P25779;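 also: plate controls were neutral wells for no effect and buffer without enzyme for full effect; nearly all actives have a fitted effect of over 40% in size; top concentration of the series not given in the record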
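Sodium acetate buffer (100 mM, pH 5.5) containing 5 mM DTT and 0.01% Triton X-100 hosted 1.5 nM cruzain and test compound for 15 min at room temperature. Cleavage of 2 uM Z-FR-AMC was then tracked by fluorescence.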
Lassa entry inh: Lassa virus entry inhibition. Lassa virus pseudotype entry inhibition, cell reporter; control for the full effect not named in the record. Potency, µM (highest dose often 37.9 µM), inactives show at the top dose activity change, negative = inhibition, most hits filed as inhibitors. 1.2% of 300,000 active; active means well fitted inhibition curve with a large enough effect; inconclusive means small, poorly fitted or top-dose-only effect, or effect the other way; inactive means flat fitted curve, though single readings scatter; tested in HEK293 cells; also: % is scaled to controls: 0 for no effect and ±100 for the full control effect; nearly all actives have a fitted effect of over 50% in size; luciferase read-out
SARS PLP yeast: inhibitors of SARS-CoV papain-like protease in yeast | S. cerevisiae expressing SARS-CoV PLpro, growth rescue; control for the full effect not named in the record | Potency, µM (doses to about 32.9 µM), inactives show at the highest dose activity, positive = growth rescue | 0.19% of 330,000 active | AID 485353; active means well fitted rising curve with a large enough effect; inconclusive means small, poorly fitted or top-dose-only effect; inactive means no such curve, though single readings can be large or run the other way; also: 0% is about no effect; nearly all actives have a fitted effect of over 55% in size; growth read by luminescence after 48 h
* marks the source's active call; other numbers are inactive results; u = inconclusive; x = not tested or not shown; & = joins results of further samples; [ ] = another dose, or the depositor's remark. Unless noted, calls follow the shape of the dose curve; as a rule, active = well fitted curve in the direction sought with a large enough effect; inconclusive = small, poorly fitted or top-dose-only effect, or another doubt; inactive = no such curve, though single readings can be large; an effect the other way counts as inactive or inconclusive. Potency is read from the fitted curve at half-maximal effect.

smiles	StopGo reporter	NS1 inh	RE007 growth inh	Cruzain noTriton	Marburg entry inh	Cruzain inh Det	Lassa entry inh	SARS PLP yeast
COC(=O)c1cc(Cl)c(NC(=O)c2cc3ccccc3o2)cc1OC	1%	9%	-5%	u	u	4.5%	2%	5%
CCn1cc(C(=O)NCCC2=CCCCC2)c(=O)c2cc(S(=O)(=O)N(C)C)ccc21	-16%	-20%	12%	25%	x	-9.1%	x	23%
COCCCNC(=O)Nc1ccc(F)cc1F	3%	-1%	21%	-6%	10%[46.1 µM]	0.4%	7%	5%
O=C(Nc1ccc(O)c2c(=O)cc(-c3cccc(Cl)c3)oc12)c1ccccc1Cl	-10%	5%	-17%	x	x	x	x	0%
Cc1cccc(NC(=O)C(=O)NCC2CCCN2S(=O)(=O)c2cccs2)c1C (stereo not drawn)	5%	x	16%	x	1%	x	-20%	-3%
CN(CCOc1cccc2ccccc12)Cc1ccccc1	-12%	2%	-12%	x	x	x	x	-2%
CCc1ccc(NC(=O)c2c(C(=O)Nc3ccccc3)sc3nc(C)cc(=O)n23)cc1	18%&-9%	x	-6%	17%	2%	-5.6%	u	1%
CCn1c(Cc2ccccc2)nnc1SCC(=O)Nc1ccc2c(c1)OCO2	-5%	2%	8%	-10%	-16%	-1.8%	-17%	-1%
Cc1cnc(C(=O)OCC(=O)c2csc(N3CCCCC3)n2)cn1	37%[activator]	5%	-2%	-14%	2%	-9.7%	8%	0%
COC(=O)c1ccccc1NC(=O)CSc1nnc(-c2cccnc2)n1N	3%	4%	-1%	x	4%[46.1 µM]	x	19%	-1%
COc1ccc(-c2nc(CSCC(=O)NC3CC3)c(C)o2)cc1OC	-6%	9%	6%	x	-15%[46.1 µM]	x	5%[46.1 µM]	-3%
CCOC(=O)c1c(C)[nH]c(C)c1S(=O)(=O)N1CCC(C(=O)Nc2ccc(C)c(N(C)C)c2)CC1	-25%	x	x	19%	x	0.3%	-2%[46.1 µM]	x
CCCNC(=O)c1cccc(COc2ccccc2OC)c1	13%	-2%	13%	x	x	x	x	-1%
S=C(NC1CCCC1)NC1CC1	2%	14%	7%	-2%	-1%[46.1 µM]	1.7%	-13%	-6%
O=C(COC(=O)[C@@H]1CCCN1C(=O)c1cccs1)Nc1ccc(F)cc1[N+](=O)[O-]	-3%	x	-4%	x	-2%[46.1 µM]	x	2%	0%
CCn1c(=S)sc2c(=O)[nH]c(C)nc21	1%	1%	5%	-1%	2%	-6.0%	u	-2%
Fc1cccc(Cl)c1CSc1nnnn1-c1ccc2c(c1)OCO2	x	-5%	-1%	18%	u	-8.0%	u	0%
COc1ccc(-n2cccc2C=O)cc1	-4%	-9%	-6%	6%	u	-2.2%	-9%	-23%
O=C1NC(=O)N(CCC2=CCCCC2)C(=O)/C1=C\c1cccs1	-20%	15%	-11%	7%	25%	-2.9%	0%	-14%
Cc1ccc2c(Cl)cc(Cl)c(OCC(=O)Nc3cc(C)on3)c2n1	x	23%	x	4%	-3%	-1.9%	x	0%
Cc1cc(C)c(S(=O)(=O)N2CCCOC2CNC(=O)C(=O)NCc2ccccn2)c(C)c1 (stereo not drawn)	-10%	x	2%	x	8%[46.1 µM]	x	-7%	0%
O=C(NCc1n[nH]c(=S)n1-c1ccc(Cl)c(Cl)c1)c1ccco1	-10%	10%	1%	x	-5%	x	1%	0%
CCCN(C(=O)Cn1ncc2c(=O)oc3ccccc3c21)c1cccc(C)c1	-20%&0%	17%	8%	-24%&-20%	u	-21%&-11%	u	x
Cc1ccc(-c2noc(CCC(=O)Nc3cc(C)ccn3)n2)cc1	-14%	-3%	-7%	-28%	-10%[46.1 µM]	1.0%	0%	0%
O=C1CCc2ccc(NS(=O)(=O)c3ccc(F)cc3)cc2N1	1%	x	12%	x	u	x	-12%[46.1 µM]	3%
CCOC(=O)Nc1nc(C)c(C(=O)c2ccc(Cl)cc2)s1	19%	-7%	3%	2%	-11%	-3.4%	2%	7%
CCC1(C)CC2(CCCN(CCC(O)(c3ccccc3)c3ccccc3)C2)CCO1 (stereo not drawn)	u	3%	-15%	x	u	x	u	-1%
Cc1ccc(C(=O)N/C(=C/c2ccc(-c3ccc([N+](=O)[O-])cc3)o2)C(=O)NCCCN(C)C)cc1	-19%	x	-23%	x	4µM*	x	u	x
CNc1nc(N2CCc3ccccc32)ncc1F	x	-59%	-8%	5%	25%	-9.0%	u	-6%
O=C(Nc1ccc(S(=O)(=O)Nc2nccs2)cc1)C1CCCCC1	31%[activator]	-35%	5%	10%	7%	-0.8%	7%	-6%
CC(NC(=O)Cn1nc(-c2ccccc2)ccc1=O)c1ccccc1 (stereo not drawn)	-10%	-8%	11%	x	x	x	x	3%
COc1ccc(OCc2nc(C#N)c(NCCCn3ccnc3)o2)cc1	9%	4%	-16%	x	8%[46.1 µM]	x	10%	2%
CC12CN3CC(C)(CN(C1)C31CCSCC1)C2=O	-8%	4%	18%	-7%	1%	1.7%	12%	10%
COc1ccccc1N1CCN(C(=O)CN(C)S(=O)(=O)c2cc(C)ccc2OC)CC1	-23%	-5%	6%	x	u	x	-26%[46.1 µM]	-1%
C=CCSc1nnc2nc3[nH]c4c(C)cccc4c3nn12	1%	10%	2%	u	u	2.2%	3%	-3%
Cc1sc2ncn(CC(=O)NCCCN3CCC(C)CC3)c(=O)c2c1S(=O)(=O)N1CCC(C)CC1	-6%	-1%	5%	x	9%[46.1 µM]	x	-3%[46.1 µM]	1%
O=C1NC(=Nc2ccc(Cl)cc2)/C(=C/c2ccco2)S1	48%[activator]	16%	13%	5µM*	u	-21%	0%	-4%
CCOc1ccc(NC(=O)c2nc3nc(C)cc(C(F)F)n3n2)cc1	6%	x	x	4%	13%[46.1 µM]	-3.9%	-2%[46.1 µM]	x
CCOC(=O)C1CCN(C(=O)CN2C(=O)C(CC)Oc3ccccc32)CC1 (stereo not drawn)	x	-10%	-9%	-6%	-1%	-1.7%	-1%	-1%
O=C(Nc1cccc(C(=O)OCc2cc(=O)n3nc(C4CC4)sc3n2)c1)c1ccc(F)cc1	-8%	x	x	-6%	x	-0.2%	1%[46.1 µM]	x
O=C(Nc1nc2c(F)cc(F)cc2s1)C1CC(=O)N(Cc2ccco2)C1 (stereo not drawn)	8%	-1%	1%	x	x	x	x	2%
O=C(CSC1=Nc2ccccc2C2=NC(CC(=O)NC3CCCCC3)C(=O)N12)Nc1ccc(F)cc1 (stereo not drawn)	-25%	x	x	-10%	x	-0.4%	-3%[46.1 µM]	x
COc1ccc(CNC2CC(=O)N(C)C2=O)cc1 (stereo not drawn)	10%	4%	-21%	12%	-15%	5.6%	6%	0%
Cn1c(=O)c2c(nc(SCCOc3ccc4ccc(=O)oc4c3)n2C)n(C)c1=O	x	-2%	x	-11%	4%	-5.1%	x	10%
COc1ccc(C)cc1NC(=O)C(OC(=O)c1cc(C)oc1C)c1ccccc1 (stereo not drawn)	16%	-8%	11%	0%	-13%	-8.8%	u	7%
CC(C)(C)C(=O)NC1(C(F)(F)F)N=C2SCCN2C1=O (stereo not drawn)	4%	3%	4%	4%	3%	1.7%	1%	11%
CC1CCCCC12NC(=O)N(CC(=O)NC(=O)Nc1ccc3c(c1)OCCO3)C2=O (stereo not drawn)	18%	8%	4%	1%	-3%	-0.9%	u	0%
Cn1c(CN2CCOCC2)nnc1SCC(=O)Nc1nccs1	0%	5%	16%	1%	7%	-4.4%	8%	3%
COc1ccc(N2CCN(C(=O)c3ccncc3)CC2)cc1	-20%	9%	-1%	2%	-10%	5.5%	1%	7%
CCc1ccc(-c2cc(C)no2)cc1S(=O)(=O)NCCc1ccc(OC)c(OC)c1	23%	-2%	4%	x	x	x	x	0%
Cc1nn2c(=O)cc(COC(=O)c3ccc(NC(=O)CCc4ccccc4)cc3)nc2s1	11µM*	x	x	-14%	x	0.8%	2%[46.1 µM]	x
O=C(CCN1C(=O)c2ccccc2C1=O)Nc1ccccn1	17%	4%	-3%	-2%	25%	4.3%	1%	2%
CCSc1ncc(Cl)c(C(=O)Nc2sc(C(C)=O)c(C)c2C(=O)OC)n1	u	x	x	2%	-1%[46.1 µM]	-0.9%	0%[46.1 µM]	x
CSCCC(NC=C1C(=O)OC(C)(C)OC1=O)C(=O)O (stereo not drawn)	-3%	15%	-2%	20%	2%	0.9%	-7%	u
CCCCn1c(SCC(=O)NCc2ccco2)nnc1-c1ccco1	33%[activator]	4%	17%	6%	22%	2.5%	20%	4%
Cc1ccc(NC(=O)CN(c2ccccc2F)S(C)(=O)=O)cc1	-9%	0%	17%	0%	4%	-0.6%	-7%	5%
COc1ccc(CN2C(=NC(=O)CCC3CCCC3)SC3CS(=O)(=O)CC32)cc1 (stereo not drawn)	-5%	-12%	-6%	x	x	x	x	5%
C=CCn1c(SCC(=O)Nc2ccccc2OC)nc2c([nH]c3ccccc32)c1=O	37%[activator]	5%	-4%	x	x	x	x	-2%
CCN1CCN(c2nc3c(C)cccn3c(=O)c2C=C(C#N)C#N)CC1	-22%	-1%	-5%	x	x	x	x	1%
O=C(COC(=O)c1ccc(Br)o1)NCCc1ccccc1	17%	-1%	-9%	x	10%[46.1 µM]	x	-4%	-1%

Further entries follow.
smiles	StopGo reporter	NS1 inh	RE007 growth inh	Cruzain noTriton	Marburg entry inh	Cruzain inh Det	Lassa entry inh	SARS PLP yeast
Cc1occc1C(=O)N(C)Cc1nc(-c2ccc(Cl)cc2)no1	-13%	0%	3%	x	u	x	u	-1%
Nc1c(C(=O)Nc2cccc(Br)c2)sc2nc3c(cc12)N1CCC3CC1	-24%	x	x	-7%	u	-3.6%	7%[46.1 µM]	x
O=C(COC(=O)Cc1ccccc1[N+](=O)[O-])NCC1CCCCC1	-8%	-7%	17%	x	u	x	-19%	-6%
CN1CCN(c2nc3ccccn3c(=O)c2C=C2C(=O)N(C)C(=O)N(C)C2=O)CC1	-22%	2%	-16%	-10%	u	-4.6%	5%	13%
Nc1cc(Cl)ccc1C(=O)OCC(=O)NC1CCCCC1	23%	x	13%	x	1%[46.1 µM]	x	-9%	0%
